Screens from PubChem.
MLL AF4-AF9 inh: blocks AF4 peptide binding to human AF9 | AlphaScreen, biotin-AF4 peptide binding to FLAG-AF9 | AID 651704 | inhibition, % at 10 µM | 350,000 tested, 0.47% active | P42568;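 active = every replicate reaching a set inhibition limit, whatever the replicate mean, cut at about 25% in these data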;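 also: 0% = plate neutral control median and 100% = total signal loss; the record names both 10 and 1 µM as test concentration; the first replicate is given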
Target sequence (P42568 whole entry, looked up): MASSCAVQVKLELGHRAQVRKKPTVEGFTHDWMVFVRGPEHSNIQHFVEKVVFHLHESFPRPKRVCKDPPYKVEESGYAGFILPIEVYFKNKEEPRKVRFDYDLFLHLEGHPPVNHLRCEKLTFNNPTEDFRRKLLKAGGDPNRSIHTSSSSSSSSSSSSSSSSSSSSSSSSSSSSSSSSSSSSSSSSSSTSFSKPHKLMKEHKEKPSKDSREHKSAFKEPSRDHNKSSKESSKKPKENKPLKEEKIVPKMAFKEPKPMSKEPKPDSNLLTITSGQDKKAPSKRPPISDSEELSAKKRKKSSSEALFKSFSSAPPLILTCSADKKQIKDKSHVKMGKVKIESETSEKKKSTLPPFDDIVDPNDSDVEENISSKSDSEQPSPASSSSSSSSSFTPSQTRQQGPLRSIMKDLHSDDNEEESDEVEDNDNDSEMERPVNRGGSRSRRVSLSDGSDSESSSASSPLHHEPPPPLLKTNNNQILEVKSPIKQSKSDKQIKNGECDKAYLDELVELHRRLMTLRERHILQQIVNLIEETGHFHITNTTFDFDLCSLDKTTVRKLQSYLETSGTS
FGF22 binding: binders of recombinant human FGF22 by thermal shift; AID 651658; Q9HCT0; calls only at 9.99 µM; 340,000 tested, 1.5% active; SYPRO orange fluorescence; percent of sucrose octasulfate shift, DMSO zero;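 active = melting point raised past a set limit in the mean and every replicate; three in four hits are not shown here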
Target sequence (Q9HCT0 whole entry, looked up): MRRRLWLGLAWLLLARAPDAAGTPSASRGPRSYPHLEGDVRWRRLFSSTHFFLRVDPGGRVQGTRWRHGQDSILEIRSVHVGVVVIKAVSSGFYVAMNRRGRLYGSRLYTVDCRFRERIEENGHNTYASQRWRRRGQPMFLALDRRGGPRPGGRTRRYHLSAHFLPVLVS
Ecoli rRNA inh: inhibitors of bacterial rRNA selective over humanized ribosomes; E. coli WT GFP vs humanized-ribosome RFP mutants, fluorescence, 24 h; active compounds read low; DMSO median 0, no signal -100; GFP signal change (wild-type ribosome), % (concentration not given with the values); 350,000 tested, 1.6% active; AID 720706;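 active = significant combined selectivity score with lowered wild-type GFP, culture density cut under 30%, mutant RFP and density less affected; inactive = any of these conditions unmet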; also: one replicate is shown; some compounds called inactive have numbers as strong as hits
Ecoli rRNA inh OD600: further read-out of Ecoli rRNA inh, marked with its call; OD600 change, %; measured here: OD600 growth;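 optical density of the mix in the first replicate; 0 = DMSO median and -100 = no signal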
Ecoli rRNA inh RFP: second read-out of Ecoli rRNA inh, no call of its own (marks repeat the call); RFP signal change, %; measured here: RFP humanized mutant strains;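 first replicate; 0 = DMSO median and -100 = no signal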
Active calls of the source: *; i = inactive; / = not tested or not shown; & = joins results of further samples.

SMILES	MLL AF4-AF9 inh	FGF22 binding	Ecoli rRNA inh	Ecoli rRNA inh OD600	Ecoli rRNA inh RFP
COc1ccc2c3c([nH]c2c1)[C@H](CO)N(S(C)(=O)=O)CC31CN(C(=O)Nc2ccccc2)C1	-2.0	i	-2.0	-0.8	2.0
CCCc1c(C(=O)N/N=C/c2ccc(OCc3ccccc3)cc2)nnn1-c1nonc1N	-3.9	i	3.2	14.8	-1.6
CCOC(=O)[C@]12CCCC=C1N(Cc1ccc3c(c1)OCO3)C(=O)[C@H](CC(=O)NCc1cccc3ccccc13)C2	1.2	i	-0.5	3.5	-0.7
C[C@H]1CN([C@@H](C)CO)C(=O)c2cc(NC(=O)CCN3CCOCC3)ccc2O[C@@H]1CN(C)Cc1ccc2c(c1)OCO2	0.5	i	3.7	4.1	3.4
COc1ccccc1N1CCN(C(=O)CSc2nnnn2C2CC2)CC1	-10.4	i	-0.1	-10.6	-0.4
C[C@@H]1CCCCO[C@@H](CN(C)C(=O)NC2CCCCC2)[C@H](C)CN([C@@H](C)CO)C(=O)c2cc(NC(=O)CCCCCC(=O)Nc3ccccc3N)ccc2O1	-3.1	i	-2.0	-4.8	-0.1
C[C@H](CO)N1C[C@H](C)[C@H](CN(C)C(=O)[C@@H]2CCCN2C)OCc2ccccc2-c2c(n(C)c3ccccc23)C1=O	2.9	i	0.2	-0.7	-2.3
CC(=O)N1C[C@@H]2[C@H](c3ccccc31)[C@H](CO)N2S(=O)(=O)c1ccccc1	1.9	i	0.1	16.9	-1.9
C[C@@H]1CN([C@@H](C)CO)C(=O)c2cc(C3=CCCCC3)cnc2O[C@@H]1CN(C)CC1CCOCC1	-3.7	i	3.3	10.8	-0.3
C[C@H]1CN([C@@H](C)CO)C(=O)c2ccccc2-c2ccccc2CO[C@H]1CN(C)C(=O)Nc1cccc(C(F)(F)F)c1	1.5	i	-1.6	4.4	0.6
Nc1[nH]c(C(=O)c2ccccc2)c(-c2ccc(F)cc2)c1C(=O)NCc1ccccc1	0.5	i	3.2	2.7	11.1
CN(C)CCNc1ncnc2c1ncn2[C@H]1CN(Cc2ccncc2)C[C@@H](CO)O1	-2.2	i	32.4	21.9	0.3
CCCC#Cc1ccc2c(c1)O[C@@H](CN(C)S(=O)(=O)c1cccc(OC)c1)[C@H](C)CN([C@@H](C)CO)S2(=O)=O	1.7	i	0.2	-7.3	1.1
COc1ccc(NC(=O)Nc2ccc3c(c2)[C@@H]2C[C@@H](CC(=O)N[C@@H](C)c4ccccc4)O[C@H](CO)[C@@H]2O3)cc1	-2.3	i	-6.1	28.8	6.3
CC(C)NC(=O)N(C)C[C@H]1Oc2c(NC(=O)C3CCCCC3)cccc2C(=O)N([C@@H](C)CO)C[C@H]1C	-0.4	i	2.1	3.4	1.1
CCN1C[C@@H](C)[C@H](OC)CN(C)C(=O)c2cc(NC(=O)NC(C)C)ccc2OC[C@H]1C	1.3	i	0.6	1.2	2.3
C[C@H](CO)N1C[C@H](C)[C@H](CN(C)C(=O)CCCN(C)C)OCCCC[C@H](C)Oc2ccc(NS(=O)(=O)c3ccc(F)cc3)cc2C1=O	0.7	i	0.9	6.9	-1.8
C[C@@H]1CN([C@@H](C)CO)S(=O)(=O)c2ccc(Br)cc2O[C@@H]1CN(C)C(=O)c1ccncc1	-1.4&-0.4	i	1.3&2.3	4.8&23.4	-0.5&0.1
Cc1ccccc1S(=O)(=O)N(C)C[C@@H]1OCc2cnnn2CCCC(=O)N([C@H](C)CO)C[C@@H]1C	-0.4&2.2	i	10.9&-1.3	15.5&-5.7	5.2&1.1
C[C@H](CO)N1C[C@H](C)[C@@H](CN(C)C(=O)Nc2ccccc2)Oc2ccc(NC(=O)Cn3cnnn3)cc2CC1=O	0.3	i	2.1	3.4	1.8
C[C@@H]1CCCCO[C@@H](CN(C)C(=O)CCCN(C)C)[C@H](C)CN([C@H](C)CO)C(=O)c2cc(NS(=O)(=O)c3cn(C)cn3)ccc2O1	-3.2	i	3.0	10.2	0.6
O=C(C[C@@H]1CC[C@@H]2[C@H](COC[C@@H](O)CN2C(=O)C2CCCC2)O1)NCc1ccncc1	-2.8	i	3.2	5.9	10.6
CCC(=O)N1C[C@H]2[C@@H](c3ccccc31)[C@@H](CO)N2C(=O)Nc1ccccc1F	0.5	i	3.5	0.1	-4.1
COc1ccc(S(=O)(=O)Nc2cccc3c2O[C@H](CN(C)S(=O)(=O)c2ccc(OC)cc2)[C@H](C)CN([C@@H](C)CO)C3=O)cc1	0.8	i	-1.4	-10.0	3.5
C[C@@H]1CCCCO[C@H](CN(C)C(=O)CCCN(C)C)[C@@H](C)CN([C@@H](C)CO)C(=O)c2cc(NC(=O)C3CCCCC3)ccc2O1	-3.5	i	1.0	4.0	-1.2
CCCCC(=O)N(C)c1c(CC)nc2c(OCc3ccccc3C)cccn12	2.5	i	-10.4	-23.6	-5.2
CS(=O)(=O)/C(C#N)=C/c1cccn1S(=O)(=O)c1ccc([N+](=O)[O-])cc1	0.4	i	3.9	5.9	-0.5
C[C@H](CO)N1C[C@H](C)[C@H](CN(C)C(=O)Nc2ccc3c(c2)OCO3)Oc2ccc(NS(=O)(=O)c3ccccc3)cc2C1=O	-1.9	i	0.1	5.2	0.3
Cc1noc(C)c1S(=O)(=O)Nc1ccc2c(c1)C(=O)N([C@H](C)CO)C[C@H](C)[C@H](CN(C)S(=O)(=O)c1ccc(F)cc1)OCCCC[C@@H](C)O2	-1.4	i	1.2	5.9	0.7
C[C@H]1CN([C@@H](C)CO)C(=O)Cc2cc(NC(=O)Cn3cnnn3)ccc2O[C@H]1CN(C)S(=O)(=O)c1ccc(F)cc1	1.1	i	2.3	-1.8	0.1
COc1ccc(S(=O)(=O)N(C)C[C@H]2OCCCC[C@H](C)Oc3ccc(NS(=O)(=O)c4ccc(F)cc4)cc3C(=O)N([C@H](C)CO)C[C@@H]2C)cc1	0.0	i	-3.9	-2.4	-0.3
O=C(C[C@H]1C=C[C@H](NC(=O)NC2CCCCC2)[C@@H](CO)O1)NCc1ccccc1	-0.9	i	3.7	4.8	0.4
COC(=O)C1=C(C)N(Cc2cccc(C(F)(F)F)c2)C(=NCC2CC2)NC1c1cccc(C(F)(F)F)c1 (stereo not given)	6.3	/	-48.0	-77.8	-16.2
O=C(C1CCCC1)N1C[C@H]2[C@@H](c3ccccc31)[C@H](CO)N2C(=O)Cc1ccccn1	1.0	i	4.2	0.3	-0.4
CCS(=O)(=O)N1CCCCN2[C@H](CO)[C@@H](c3ccc(-c4cccc(C#N)c4)cc3)[C@H]2C1	-8.6	i	0.3	0.5	-4.0
Cc1noc(C)c1S(=O)(=O)Nc1ccc2c(c1)C(=O)N([C@@H](C)CO)C[C@@H](C)[C@@H](CN(C)Cc1ccc3c(c1)OCO3)OCCCC[C@H](C)O2	5.4	i	1.1	-0.3	3.2
COc1ccc(CN(C)C[C@@H]2Oc3ccc(NC(=O)NC(C)C)cc3C(=O)N([C@@H](C)CO)C[C@H]2C)cc1	1.4	i	1.1	10.5	-0.5
COc1ccc2c3c([nH]c2c1)[C@H](CO)N(C(=O)c1ccccc1)CC31CN(C(=O)Nc2cccc(F)c2)C1	0.2	i	-3.7	-5.8	0.7
CCCC#Cc1ccc([C@H]2[C@@H](CO)N3CCCCN(S(=O)(=O)Cc4ccccc4)C[C@H]23)cc1	11.2	i	-54.1	-75.8	-7.8
COc1ccccc1Cc1c(-c2ccccc2)nc2c(C)cc(Br)cn12	0.9	i	-8.7	-11.6	2.6
CC(C)NC(=O)N[C@@H]1CC[C@@H](CCNS(=O)(=O)c2ccc(F)cc2)O[C@H]1CO	-2.2	i	2.3	-2.1	-4.3
CN1CCN(C(=O)C[C@@H]2CC[C@@H]3[C@H](COc4ccc(NC(=O)C5CCCC5)cc4C(=O)N3C)O2)CC1	-3.7	i	-0.6	-6.1	-1.1
COCC(=O)N(C)C[C@H]1Oc2cc(C#C[C@@H](C)O)ccc2S(=O)(=O)N([C@@H](C)CO)C[C@@H]1C	-2.1	i	3.4	5.0	-1.4
CCOC(=O)C1=CCN(S(=O)(=O)c2ccc(Br)cc2)C1c1ccc(C)cc1 (stereo not given)	-1.4	i	-6.9	-1.9	0.3
CCC(=O)N(C)C[C@@H]1Oc2cc(C#CC(C)(C)O)ccc2S(=O)(=O)N([C@@H](C)CO)C[C@H]1C	-1.4	i	3.5	0.7	-1.4
C[C@@H]1CCCCO[C@@H](CN(C)S(=O)(=O)c2cccs2)[C@@H](C)CN([C@H](C)CO)C(=O)c2cc(NC(=O)Nc3ccc(C(F)(F)F)cc3)ccc2O1	-0.9	i	-0.1	4.8	0.0
COc1ccccc1CNC(=O)C[C@H]1C=C[C@H](NC(=O)CN(C)C)[C@H](CO)O1	-1.1	i	4.1	0.5	-3.0
C[C@H](CO)N1C[C@H](C)[C@H](CN(C)Cc2ccccc2)Oc2ccc(NC(=O)C3CC3)cc2CC1=O	2.1	i	-1.7	5.2	-0.8
COc1ccc2c3c(n(C)c2c1)[C@H](CO)N(Cc1ccncc1)CC31CN(C(=O)C2CCC2)C1	2.2	i	-3.1	-6.0	-1.4
COCCNC(=O)C[C@H]1CC[C@H]2[C@@H](COc3ccc(NC(=O)Cc4ccccc4)cc3C(=O)N2C)O1	-2.6	i	3.5	2.8	-1.1
Cc1ccccc1S(=O)(=O)N1CCCCN2[C@H](CO)[C@@H](c3ccc(-c4cncnc4)cc3)[C@@H]2C1	-5.5	i	-5.7	-9.1	-2.2
Clc1cccc(-c2ccc3nccn3c2)c1Cl	-3.1	i	-60.2	-76.2	-25.4
COc1ccccc1C#Cc1ccc2c(c1)O[C@H](CN(C)Cc1ccccc1)[C@H](C)CN([C@@H](C)CO)S2(=O)=O	-1.8	i	0.2	18.0	1.5
CC(C)NC(=O)Nc1cccc2c1O[C@H](CN(C)Cc1ccc(Oc3ccccc3)cc1)[C@@H](C)CN([C@H](C)CO)C2=O	6.6	i	-6.9	-4.7	0.7
C[C@H]1CN([C@@H](C)CO)C(=O)c2cc(NC(=O)Cc3cn(C)c4ccccc34)ccc2O[C@H]1CN(C)CC1CCCCC1	7.5	i	3.9	-3.4	-0.7
CN(C)CC(=O)N[C@H]1CC[C@@H](CCn2cc(C3CC3)nn2)O[C@H]1CO	-1.8	i	3.1	1.9	-0.3
C[C@@H]1CN([C@H](C)CO)C(=O)c2cc(NS(=O)(=O)c3cn(C)cn3)ccc2O[C@H]1CN(C)C(=O)Nc1cccc2ccccc12	-1.5	i	4.3	13.7	-1.5
CNC[C@H]1Oc2ccc(NC(=O)NC(C)C)cc2CC(=O)N([C@H](C)CO)C[C@@H]1C	-2.3	i	6.6	7.3	1.0
Cc1ccc(S(=O)(=O)N(C)C[C@@H]2Oc3ncccc3C(=O)N([C@H](C)CO)C[C@@H]2C)cc1	-4.2	i	2.9	8.3	0.4
COC(=O)C1=C(C)N(Cc2cccc(C(F)(F)F)c2)C(=NCc2ccc(C(F)(F)F)cc2)NC1c1ccc(Cl)cc1 (stereo not given)	3.5	/	-48.2	-71.5	-6.7

3 records drawn at random from those above, as already listed:
SMILES	MLL AF4-AF9 inh	FGF22 binding	Ecoli rRNA inh	Ecoli rRNA inh OD600	Ecoli rRNA inh RFP
CC(C)NC(=O)Nc1cccc2c1O[C@H](CN(C)Cc1ccc(Oc3ccccc3)cc1)[C@@H](C)CN([C@H](C)CO)C2=O	6.6	i	-6.9	-4.7	0.7
C[C@H]1CN([C@@H](C)CO)C(=O)c2cc(NC(=O)Cc3cn(C)c4ccccc34)ccc2O[C@H]1CN(C)CC1CCCCC1	7.5	i	3.9	-3.4	-0.7
COc1ccc2c3c(n(C)c2c1)[C@H](CO)N(Cc1ccncc1)CC31CN(C(=O)C2CCC2)C1	2.2	i	-3.1	-6.0	-1.4

Remaining list, next part
SMILES	MLL AF4-AF9 inh	FGF22 binding	Ecoli rRNA inh	Ecoli rRNA inh OD600	Ecoli rRNA inh RFP
C[C@H]1CN([C@@H](C)CO)C(=O)c2cc(-c3ccc(F)cc3)cnc2O[C@H]1CN(C)C(=O)NC1CCCC1	-4.3	i	-0.7	-5.4	0.5
C[C@H]1CN([C@@H](C)CO)C(=O)Cc2cc(NC(=O)CCN3CCOCC3)ccc2O[C@@H]1CN(C)C(=O)Nc1cccc2ccccc12	-0.9	i	3.2	20.3	-1.7
CN(C)C(=O)C[C@@H]1C=C[C@@H](NC(=O)C2CCC2)[C@H](CO)O1	-0.8	i	3.7	4.8	-1.6
CC(C)NC(=O)N[C@H]1CC[C@H](CCNS(=O)(=O)c2ccc(F)cc2)O[C@H]1CO	-0.7	i	1.1	1.6	1.0
Cc1ccc(S(=O)(=O)N(C)C[C@@H]2Oc3ccc(NC(=O)Cc4ccccc4)cc3CC(=O)N([C@H](C)CO)C[C@H]2C)cc1	-0.5	i	-1.8	-3.0	-2.5
COc1cc(-c2cccc([C@H]3[C@@H]4C=CC[C@@H](C)[C@@H]4C(=O)N3Cc3ccccc3)c2)cc(OC)c1OC	-4.1	i	-0.4	-0.1	-2.5
CC1=C(C(=O)N(C)C)CC(CC(=O)NCCCCc2ccccc2)C(=O)N1Cc1ccc(F)cc1 (stereo not given)	-0.2	i	-4.0	-6.1	-1.4

Only part of the results is shown. The share of hits here may be higher or lower than overall.
